Compound activity from PubChem.
LANA-H2B inh: blocks KSHV LANA binding to histone H2A/H2B | Q9QR71 | cell-free LANA-H2A/H2B peptide, fluorescence polarization | inhibition, % (no concentration beside the values) | 320,000 compounds, 0.6% hits; in the data active = inhibition mostly above about 10%, no sharp cut-off; inactive = mostly below about 6.7%;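 also: stock transfer was 7.5 nL into about 10 µL; 0% = median of vehicle wells and 100% = median of positive control wells; one replicate is shown; the record names a cut of 25% in any replicate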
Target sequence (Q9QR71 whole entry, looked up): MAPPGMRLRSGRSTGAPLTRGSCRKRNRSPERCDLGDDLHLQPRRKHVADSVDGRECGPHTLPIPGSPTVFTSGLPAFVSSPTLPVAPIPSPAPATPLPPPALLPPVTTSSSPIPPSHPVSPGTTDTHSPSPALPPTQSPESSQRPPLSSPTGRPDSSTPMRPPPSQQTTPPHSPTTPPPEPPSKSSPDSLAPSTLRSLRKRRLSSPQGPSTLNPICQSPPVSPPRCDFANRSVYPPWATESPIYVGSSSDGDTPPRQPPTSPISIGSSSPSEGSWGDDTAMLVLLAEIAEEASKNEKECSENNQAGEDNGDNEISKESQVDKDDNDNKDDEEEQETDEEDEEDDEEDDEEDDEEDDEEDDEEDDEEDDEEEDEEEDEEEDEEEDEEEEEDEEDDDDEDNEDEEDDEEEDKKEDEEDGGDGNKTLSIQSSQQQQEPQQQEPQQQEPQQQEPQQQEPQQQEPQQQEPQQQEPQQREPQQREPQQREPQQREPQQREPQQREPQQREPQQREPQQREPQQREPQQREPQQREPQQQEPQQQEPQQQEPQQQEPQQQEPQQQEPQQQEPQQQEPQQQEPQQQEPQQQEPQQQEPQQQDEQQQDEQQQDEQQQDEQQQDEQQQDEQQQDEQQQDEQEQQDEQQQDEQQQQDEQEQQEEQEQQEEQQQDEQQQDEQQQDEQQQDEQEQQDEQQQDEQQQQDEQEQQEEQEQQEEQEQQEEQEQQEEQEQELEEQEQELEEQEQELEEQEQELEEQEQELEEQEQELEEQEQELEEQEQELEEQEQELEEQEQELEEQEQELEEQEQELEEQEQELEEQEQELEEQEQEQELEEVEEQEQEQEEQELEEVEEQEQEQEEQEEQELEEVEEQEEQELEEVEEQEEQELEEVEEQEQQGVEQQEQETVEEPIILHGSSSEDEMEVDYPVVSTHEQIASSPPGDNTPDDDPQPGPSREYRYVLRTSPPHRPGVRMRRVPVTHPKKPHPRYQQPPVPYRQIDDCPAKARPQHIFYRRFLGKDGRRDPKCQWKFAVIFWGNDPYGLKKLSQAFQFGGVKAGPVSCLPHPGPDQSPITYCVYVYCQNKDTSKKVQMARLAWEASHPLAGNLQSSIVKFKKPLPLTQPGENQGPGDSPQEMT
Vif TR-FRET: inhibitors of Vif binding to APOBEC3G peptide, primary screen, biochemical, TR-FRET, GST-Vif 1-94, biotin-A3G peptide, dose response retest (AID 1117319). TR-FRET GST-Vif / biotin-A3G peptide binding; higher % means a stronger effect; test concentration not given here; strong numbers were not always called active. 260,000 compounds, 0.57% hits. one-dose inhibition, %; IC50 in µM for titrated hits;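 active = above the screen mean plus three standard deviations and confirmed in dose response; inconclusive = results disagree or hit not tested in dose response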;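 also: Vif residues 1-94 fused to GST binding biotinylated APOBEC3G peptide 110-148; 0% = full assay without inhibitor and 100% = GST in place of GST-Vif; retest series ran down from 100 µM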
Bfl-1 A1 inh: inhibitors of the anti-apoptotic protein A1, read as caspase activation | 330,000 compounds, 0.066% hits | caspase activation, % (concentration not given with the values) | MEF A1-2A-BIM cells, Caspase-Glo 3/7 luminescence, 3 h; percent of clofoctol response, vehicle zero;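 active = over half of replicate activation scores above 10%, or exactly half above 10 with the replicate mean above 10; inconclusive = replicate mean below 10 yet half the replicates above 10; inactive = over half of replicates below 10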;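 also: wells of about 30 µL received 50 nL stock; many hits fall short of the cut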
Beta2AR agonist: agonists of human beta-2 adrenergic receptor inducing internalization; Am2.2-beta2AR cells, FAP receptor internalization, flow cytometry; reference of the scale not given here; AID 504454; 340,000 compounds, 0.43% hits; response, % (test concentration not listed);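 active = response above a set limit, near 3 SD of response in nonfluorescent compounds, cut at about 42% in these data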;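 also: stock transfer was 100 nL into about 11 µL; a reference agonist was the positive control; negative values mostly stem from fluorescent compounds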
Ecoli growth: blocks Escherichia coli growth; OD600, 23 h; active compounds read low; OD600 absorbance (concentration not given with the values); 330,000 compounds, 0.21% hits;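 active = OD600 absorbance below the run mean of sample wells minus 3.6 SD, in any replicate, cut at about 0.56 in these data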;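 also: stock transfer was 300 nL into about 60 µL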
HNF4A DNA FP: change in binding of human HNF4 alpha to DNA | P41235 | HNF4a-FITC DNA binding, fluorescence polarization, 1 h | activity change, % at 10 µM | 360,000 compounds, 0.3% hits | AID 1224865; in the data active = activity change above about 30%, passing the limit was not always enough;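 also: controls were the assay level and a saturating level of protein; the project sought stronger binding though the title names inhibitors; some compounds called inactive have numbers as strong as hits; positive values seem to mean higher polarization but the record does not say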
UCH37 DUB inh: blocks the human deubiquitinase UCH37. Q9Y5K5. purified proteasome/UCH37, Ub-AMC cleavage fluorescence. inhibition, % (test concentration not listed). 330,000 compounds, 0.33% hits. AID 588478;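 active = mean of two replicates above 20%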;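 also: 0% = compound-free wells with enzyme and 100% = wells lacking proteasome; stock transfer was 100 nL into about 20 µL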
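Material: human UCH37 enzyme supplied as purified proteasome complex / Amount: 0.15 nM proteasome as dispensed / Buffer or medium: pH 7.4 Tris-HCl (50 mM) with ovalbumin, ATP-MgCl2, DTT / Times: preincubation 30 min, reaction 25 min, room temperature / Technique: AMC fluorescence from Ub-AMC cleavage, excitation 355 nm, emission 460 nm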
The depositor's hits bear a star; i = inactive; ? = inconclusive; nt = no result given.

SMILES	LANA-H2B inh	Vif TR-FRET	Bfl-1 A1 inh	Beta2AR agonist	Ecoli growth	HNF4A DNA FP	UCH37 DUB inh
O=C(CSc1nc2ccccc2n1CC(=O)N1CCCC1)N1CCN(C(=O)c2ccco2)CC1	-10	18%	0.5	2	0.69	1.7	5.2
COc1cc(NC(=O)CSc2nc(C3CC3)nc3ccccc23)cc(OC)c1	17	nt	-0.2	4	0.71	2.4	2.0
COc1ccc(N2CCN(C(=O)[C@@H](NC(=O)c3cc(OC)cc(OC)c3)C(C)C)CC2)cc1	1.8	nt	-0.4	-8	0.69	0.3	-2.3
CC1C(=O)O[C@@H]2C[C@@H](C)[C@@H]3CCC(=O)[C@@]3(C)[C@@H](O)[C@H]12 (stereo not given in full)	2.0	7%	0.7	11	nt	0.4	0.5
CN(/N=C/C=C/c1ccccc1)C1=NS(=O)(=O)c2ccccc21	-7.4	nt	0.1	7	nt	-0.8	nt
O=C1c2cc(Cl)ccc2OC2(CCNCC2)C12CC(c1ccc(Cl)cc1)=NO2 (stereo not given)	3.5	25%	1.8	1	0.64	18	-0.3
O=C(O)C1=C[C@@H](c2csc3ccccc23)C[C@@H](OCc2ccc(CO)cc2)O1	3.1	nt	-0.1	11	nt	-4.0	0.1
CC(=O)c1ccc(NC(=O)c2ccc(N3CCCC3=O)cc2)cc1	nt	1%	nt	-3	0.64	2.9	3.1
COC(=O)C1=C(C)C(c2cccs2)NC(=O)N1C (stereo not given)	4.2	2%	-0.3	4	0.76	0.0	2.2
O=C(CCS(=O)(=O)c1cccc2nonc12)NCCc1ccccc1Cl	0.3	1%	1.3	-6	0.73	5.0	2.4
COc1ccc(SC[C@H](Cc2ccccc2)N2CCN(CCc3ccccc3)CCC2=O)cc1	-0.8	nt	-0.4	-1	nt	-1.7	1.4
CCC1(c2ccc(Cl)cc2)NC(=O)N(CC(=O)N2CCN(C(=O)c3ccco3)CC2)C1=O (stereo not given)	8.1	-3%	-1.1	1	0.72	-1.3	2.1
Cc1nnc(SCC(=O)N2CCOCC2)s1	-2.8	-1%	-0.1	2	0.72	-4.8	5.7
N/C(=N\OC(=O)c1ccc2ccccc2c1)c1ccc(Br)cc1	-0.9	nt	-0.1	-2	0.72	-2.9	2.4
Cc1c(C)c2cc(Cl)c(O)c(CN3CCCC(C)C3)c2oc1=O (stereo not given)	3.9	-1%	0.4	-4	0.74	-0.6	i
O=C(OCc1c(F)cccc1Cl)c1cnccn1	3.0	-6%	0.4	4	0.71	-1.7	0.1
COC(=O)COc1ccc(S(=O)(=O)N2CCc3ccccc3C2)cc1	8.9	-3%	-0.4	4	0.68	0.8	-0.4
CC(=O)Nc1ccc(S(=O)(=O)NCC(CCC(=O)O)C(F)(F)F)cc1 (stereo not given)	-4.9	?	0.3	0	0.66	-0.4	-2.2
CCOC(=O)c1ccccc1N/C=C1\CCCCC1=O	-5.2	0%	0.3	-1	0.67	-1.8	2.0
c1ccc(Cn2nnnc2CN2CCN(Cc3ccc4c(c3)OCO4)CC2)cc1	2.5	3%	2.3	4	0.74	-1.8	0.6
CC(C)N(C(=O)COC(=O)CNC(=O)c1ccc(Br)cc1)c1ccccc1	1.7	10%	0.0	3	0.67	1.7	0.7
CCn1c2ccccc2c2cc(NC(=O)COC(=O)c3cc(S(=O)(=O)N4CCCCC4)ccc3Cl)ccc21	-1.1	1%	0.9	3	0.75	2.1	2.7
O=C1CSC(c2ccc(Cl)c(Cl)c2)N1c1nccs1 (stereo not given)	2.8	3%	-0.9	0	0.66	-2.4	1.9
CC(NC(=O)CN(C)CC(=O)Nc1ccc(Cl)cc1)c1ccc(F)cc1 (stereo not given)	1.3	nt	0.0	1	0.65	-1.0	0.2
CCn1ccnc1CN1CCC(n2nccc2NC(=O)c2ccccc2OC)CC1	1.9	2%	-0.1	6	0.71	0.9	1.3
CCCCCC(=O)Nc1ccc(S(=O)(=O)Nc2nccnc2OC)cc1	-12	-2%	-1.6	1	0.64	-3.2	2.8
O=C(CCN1C(=O)c2ccccc2S1(=O)=O)NCc1ccc(F)cc1	nt	4%	nt	7	0.64	0.8	1.8
Cc1cc(=O)[nH]c(-c2ccccc2OC(F)(F)F)n1	0.6	-13%	0.3	-3	0.68	0.3	3.7
O=C(CNCc1ccc(Cl)cc1)N1CCc2ccccc2C1	-1.0	0%	-0.2	7	0.65	-0.1	2.4
CCOC(=O)CN1C(=O)C(Sc2n[nH]c(-c3ccccc3)n2)CCc2ccccc21 (stereo not given)	-11	>100µM*	0.5	-17	0.7	2.4	1.0
COc1ccc(NC(=O)c2cc3cc(C)ccc3n2C)c(OC)c1	7.7	nt	0.9	4	0.65	4.4	-11
O=C(NNC(=O)c1ccccc1F)c1ccc(Cl)c(S(=O)(=O)N2CCOCC2)c1	nt	-2%	0.1	6	0.65	3.8	3.8
CCCN(CC(=O)Nc1ccc(OC)c(OC)c1)CC(=O)Nc1ccc(F)c(F)c1F	3.1	5%	-0.7	-1	0.7	-1.1	6.3
COc1cccc(N(CC(=O)NC2CCCCCC2)S(=O)(=O)c2ccccc2)c1	-0.5	0%	1.7	0	0.75	1.6	1.7
O=C(O)CN1C(=O)c2ccc(Oc3cccc4c3C(=O)N(CC(=O)O)C4=O)cc2C1=O	4.0	8%	-0.2	3	0.73	0.7	6.5
O=C(CNS(=O)(=O)c1ccc(F)c(Cl)c1)NCCc1ccccc1	1.8	nt	-0.4	-8	0.69	1.1	0.8
O=C(NC(CO)C(=O)OCc1ccccc1)OCc1ccccc1 (stereo not given)	nt	10%	nt	-1	0.69	0.7	-1.6
COc1ccc(CSCCc2n[nH]c(=S)n2-c2ccccc2)cc1C	0.9	-2%	-0.4	5	0.65	2.9	5.6
O=C(Nc1ccc(Cl)cc1C(=O)NCC1CCCO1)c1ccc(Cl)cc1Cl (stereo not given)	1.3	nt	-0.1	-10	0.71	-0.3	4.3
CCSc1nnc(NC(=O)/C=C/c2ccco2)s1	3.0	?	-1.1	3	0.71	2.2	-12

3 of the compounds above, with values under each structure.
Results follow in this order: LANA-H2B inh, Vif TR-FRET, Bfl-1 A1 inh, Beta2AR agonist, Ecoli growth, HNF4A DNA FP, UCH37 DUB inh
- CCn1c2ccccc2c2cc(NC(=O)COC(=O)c3cc(S(=O)(=O)N4CCCCC4)ccc3Cl)ccc21
  -1.1, 1%, 0.9, 3, 0.75, 2.1, 2.7
- O=C1CSC(c2ccc(Cl)c(Cl)c2)N1c1nccs1 (stereo not given)
  2.8, 3%, -0.9, 0, 0.66, -2.4, 1.9
- CC(NC(=O)CN(C)CC(=O)Nc1ccc(Cl)cc1)c1ccc(F)cc1 (stereo not given)
  1.3, nt, 0.0, 1, 0.65, -1.0, 0.2

(more compounds)
SMILES	LANA-H2B inh	Vif TR-FRET	Bfl-1 A1 inh	Beta2AR agonist	Ecoli growth	HNF4A DNA FP	UCH37 DUB inh
O=C(Nc1ccc2nccnc2c1)c1cnccn1	-1.0	8%	-7.0	-5	0.71	-0.4	-0.1
C[C@H](NC(=O)c1cc2c(cn1)[nH]c1ccccc12)C(=O)O	5.6	0%	0.0	-2	nt	2.0	nt
Cc1cc(NC(=O)CN2C(=O)NC(C)(c3ccc(Cl)cc3Cl)C2=O)no1 (stereo not given)	-1.6	-7%	0.2	2	0.68	1.4	0.5
CC(=O)c1c(N2CCOCC2)nc(=S)n(Cc2ccccc2)c1C	2.7	-2%	0.9	2	0.73	-0.3	3.1
NC(=O)c1cc(-c2cccnc2)nc2ccc(Br)cc12	-3.4	-39%	0.2	0	0.68	-3.2	1.2
CCOC(=O)c1ccc(N=c2scc(C)n2CC)cc1	43*	nt	0.3	-1	0.67	2.0	-0.6
COc1ccc(CN(C(=O)CN2C(=O)c3ccccc3S2(=O)=O)C(C(=O)NCC2CCCO2)c2ccco2)cc1 (stereo not given)	-3.3	nt	0.4	4	0.69	-0.2	3.3
O=C(O)c1ccccc1-c1nc2ccccc2c(=O)n1O	1.2	13%	0.1	-1	0.71	4.3	2.7
CC/C=C/C(=O)N1CC2(CC(c3cccc(NC(=O)COc4ccc(Cl)cc4)c3)=NO2)C[C@H]1C(N)=O (stereo not given in full)	1.7	nt	-0.7	-3	nt	-3.1	1.1
Cc1ccccc1C(=O)Nc1cccc(-c2nnc(SCC(=O)O)n2C)c1	-5.9	-3%	0.1	0	0.7	-2.2	1.7
CCCOc1ccccc1NC(=O)c1c(-c2ccccc2)noc1C	nt	5%	nt	-2	0.74	2.2	4.4
CCOc1c2ccc(C(=O)NCc3ccc(OC(F)(F)F)cc3)cc2nn1CC	-0.1	-1%	-1.2	-4	0.69	-0.5	-24
O=C(Nc1cc(=O)[nH]c2nc(-c3ccccc3)nn12)c1ccc(Cl)cc1	-1.3	-6%	-0.7	nt	0.73	nt	4.1
CC(Sc1nnc(C(C)N(C)C)n1-c1ccc(Cl)cc1)C(=O)Nc1ccc2c(c1)OCO2 (stereo not given)	0.9	1%	0.8	13	0.75	-18	1.9
COc1cccc(Nc2nc3ccccc3c(=O)[nH]2)c1	0.6	0%	-0.1	0	0.7	3.5	3.6
Cc1cccc(NC(=O)CNC(=O)COc2cccnc2[N+](=O)[O-])c1C	2.7	nt	0.2	2	0.65	1.8	5.0
Cc1cc(C(=O)CN2C(=O)NC(CC(C)C)C2=O)c(C)n1C1CC1 (stereo not given)	4.3	3%	1.0	-4	0.66	-2.5	0.8
CN1CCN(S(=O)(=O)c2ccc3c(c2)NC(=O)CS3)CC1	-2.6	?	-0.5	5	0.7	2.1	1.6
COc1cc2c(cc1NCc1ccc3c(c1)OCO3)oc1ccccc12	1.4	12%	0.5	0	0.7	3.4	-55
O=C(NCc1ccccc1Cl)c1nnc(CS(=O)(=O)c2ccccc2)o1	-1.3	nt	0.0	-1	0.72	0.2	-0.5
O=C(NC(=S)Nc1cccc(S(=O)(=O)NC2=NCCC2)c1)c1cc(-c2ccco2)nc2ccccc12	8.5	9µM*	-0.2	33	0.69	-36	-73
O=C(O)c1cc(NS(=O)(=O)c2ccc(F)cc2)cc(NS(=O)(=O)c2ccc(F)cc2)c1	-0.3	nt	1.4	-1	0.65	-2.0	2.8
Cc1ccccc1C(=O)NC1CCN(CC(=O)NCc2ccc(F)cc2)CC1	2.5	-3%	-0.1	-2	0.64	-0.8	0.5
Cc1sc2ncnc(N3CCC(C(=O)Nc4ccccc4C(C)(C)C)CC3)c2c1C	-1.0	-8%	-0.5	5	0.72	4.0	0.4
N#Cc1c(NC(=O)C2CCCO2)sc2c1CCCCC2 (stereo not given)	2.4	0%	-1.5	-3	0.69	-1.6	6.3
CC(=O)c1ccc(OCC(=O)N2CCCC(Nc3ccc(C)c(C)c3)C2)cc1 (stereo not given)	4.8	7%	0.2	2	0.67	1.6	1.6
COc1ccc(C(=O)NC(=S)Nc2ccc(S(=O)(=O)Nc3cc(OC)nc(OC)n3)cc2)cc1	-3.9	nt	-0.2	10	0.61	-0.1	2.0
Cc1c(C(=O)n2cnc3ccccc32)cccc1[N+](=O)[O-]	3.8	-3%	1.2	6	0.68	1.1	1.5
CCOc1ccc2nc(SCc3ccc(CC(=O)O)cc3)c(C#N)cc2c1	-2.9	-6%	-0.3	19	0.7	2.1	-3.1
COc1ccc(-c2cc(C(=O)NCCCn3ccnc3)no2)cc1	-3.2	1%	0.0	-13	0.68	-1.1	-1.4
COc1c(Cl)cc(Cl)cc1C(=O)Nc1ccc(CN2CCCCC2)cc1	2.0	6%	1.5	-11	0.65	2.2	-1.7
Cc1ccc(CCNC(=O)C2CCN(c3nn4c(=O)cc(C)nc4s3)CC2)cc1	3.6	12%	0.1	1	0.72	-4.8	4.7
